ALR inh = human ALR oxidase inhibition via reduced H2O2; P55789; purified ALR, DTT oxidation, H2O2 HRP-luminol luminescence; inhibition, % (no concentration beside the values); 290,000 tested, 3.8% active;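 active means mean and each replicate at 75% or more; inconclusive means only one of the two met; inactive means neither met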;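 further: stock transfer was 7.5 nL into about 7.5 µL; 0% = neutral wells and 100% = wells with inactivated enzyme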
Target sequence (P55789 whole entry, looked up): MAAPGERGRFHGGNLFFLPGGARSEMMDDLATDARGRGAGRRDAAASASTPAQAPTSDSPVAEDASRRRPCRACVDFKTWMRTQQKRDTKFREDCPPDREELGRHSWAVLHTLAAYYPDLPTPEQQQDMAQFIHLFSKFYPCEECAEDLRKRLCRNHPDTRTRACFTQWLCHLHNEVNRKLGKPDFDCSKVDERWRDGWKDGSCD
T cruzi inh = blocks replication of Trypanosoma cruzi; T. cruzi beta-gal in NIH3T3, luminescence, 90 h; inhibition, % (no concentration beside the values); 300,000 tested, 1.4% active; AID 1885;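 active means mean inhibition across valid replicates above about 55%, limit read from the data; inconclusive means mean below that limit but half or more replicates reach it; inactive means mean below it, under half of replicates reach it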;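 further: signal also drops with host cell toxicity which is not excluded here; 0% = plate median of DMSO wells and 100% = zero luminescence signal; higher percent means less beta-gal luminescence so fewer parasites; stock transfer was 50 nL into about 50 µL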
MLL AF4-AF9 inh = inhibitors of human MLL-AF4/AF9 interaction | AlphaScreen, biotin-AF4 peptide binding to FLAG-AF9 | inhibition, % at 10 µM | 350,000 tested, 0.47% active;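 active means every replicate reaching a set inhibition limit, whatever the replicate mean, cut at about 25% in these data; inconclusive means mean inhibition reaches that limit but some replicates miss it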;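 further: 0% = plate neutral control median and 100% = total signal loss; the record names both 10 and 1 µM as test concentration; the first replicate is given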
Target sequence (P42568 whole entry, looked up): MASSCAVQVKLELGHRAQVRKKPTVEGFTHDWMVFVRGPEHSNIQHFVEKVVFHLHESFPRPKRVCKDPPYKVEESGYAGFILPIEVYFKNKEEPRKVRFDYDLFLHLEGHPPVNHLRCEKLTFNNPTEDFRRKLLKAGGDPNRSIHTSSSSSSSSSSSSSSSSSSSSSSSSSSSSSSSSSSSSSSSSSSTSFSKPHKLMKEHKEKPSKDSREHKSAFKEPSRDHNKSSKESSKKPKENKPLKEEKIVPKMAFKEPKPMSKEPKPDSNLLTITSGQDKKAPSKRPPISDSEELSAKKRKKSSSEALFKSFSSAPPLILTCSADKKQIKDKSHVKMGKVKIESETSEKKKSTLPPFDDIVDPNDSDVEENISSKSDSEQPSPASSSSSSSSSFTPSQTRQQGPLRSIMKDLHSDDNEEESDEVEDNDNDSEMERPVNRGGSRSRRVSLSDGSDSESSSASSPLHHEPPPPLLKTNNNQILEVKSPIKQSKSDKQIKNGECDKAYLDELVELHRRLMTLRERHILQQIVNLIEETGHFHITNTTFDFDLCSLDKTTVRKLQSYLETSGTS
Calb FLC = C. albicans growth modulation with fluconazole; growth inhibition, % (no concentration beside the values); 300,000 tested, 0.57% active; C. albicans CaCi-2 (fluconazole-resistant clinical isolate) + fluconazole, Alamar Blue growth, 48 h;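 active means most replicates above 75%; inconclusive means exactly half above 75%; inactive means most below 75%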;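 further: all wells also contain fluconazole at 8 µg/ml as a sub-toxic cotreatment; 0% = median of DMSO wells and 100% = median of geldanamycin control wells; wells of about 8 µL received 7.5 nL stock; the first replicate is given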
rRNA inh HTS = inhibits bacterial ribosomal RNA function over humanized ribosomes; 350,000 tested, 1.6% active; AID 720706; GFP signal change (wild-type ribosome), % (concentration not given with the values); E. coli WT GFP vs humanized-ribosome RFP mutants, fluorescence, 24 h; active compounds read low; DMSO median 0, no signal -100;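 active means significant combined selectivity score with lowered wild-type GFP, culture density cut under 30%, mutant RFP and density less affected; inactive means any of these conditions unmet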; further: one replicate is shown; some compounds called inactive have numbers as strong as hits
Beta apoptosis = blocks beta cell apoptosis; INS-1E cytokine-induced death, ATP luminescence, 48 h; percent of positive-control rescue, neutral wells zero; 300,000 tested, 0.8% active; protection from apoptosis, % (concentration not given with the values);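 active means all replicates at 75% or more, or half of them and the mean; inconclusive means half reach 75% but not the mean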;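 further: 0% = cytokine-treated negative control wells and 100% = positive control rescue; higher means more ATP so stronger rescue from cytokine killing; wells of about 40 µL received 100 nL stock; the first replicate is given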
FGF22 binding = shifts melting point of recombinant human FGF22. Q9HCT0. recombinant FGF22 thermal shift, SYPRO orange fluorescence; percent of sucrose octasulfate shift, DMSO zero. calls only at 9.99 µM. 340,000 tested, 1.5% active. AID 651658;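 active means melting point raised past a set limit in the mean and every replicate; inconclusive means no clear call; three in four hits are not shown here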
Target sequence (Q9HCT0 whole entry, looked up): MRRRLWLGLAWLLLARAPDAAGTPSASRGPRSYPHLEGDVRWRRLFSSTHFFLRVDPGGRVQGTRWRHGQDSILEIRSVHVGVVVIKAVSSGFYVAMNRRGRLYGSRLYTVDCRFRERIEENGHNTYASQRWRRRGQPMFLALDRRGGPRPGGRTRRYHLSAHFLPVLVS
RanGTP-Imp inh = disruptors of Ran-importin-beta complex formation – biochemical, FRET, CFP-Ran, YFP-importin-beta, homogeneous, primary screen; 300,000 tested, 1.1% active; inhibition, % (no concentration beside the values); cell-free CFP-Ran/YFP-importin-beta FRET ratio; AID 2216;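 active means most replicates above 15%; inconclusive means exactly half above 15%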;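 further: 0% = DMSO wells and 100% = Ran loaded with GDP instead of GTP; wells of about 40 µL received 100 nL stock; the first replicate is given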
rRNA inh HTS OD600 = also measured in rRNA inh HTS; calls as there; OD600 change, %; measured here: OD600 growth;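 optical density of the mix in the first replicate; 0 = DMSO median and -100 = no signal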
rRNA inh HTS RFP = second read-out of rRNA inh HTS, no call of its own (marks repeat the call); RFP signal change, %; measured here: RFP humanized mutant strains;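 first replicate; 0 = DMSO median and -100 = no signal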
The depositor's hits bear a star; i = inactive; ? = inconclusive; . = no result given. This is a subset; the hit share may differ from the screen's.

no.	structure	ALR inh	T cruzi inh	MLL AF4-AF9 inh	Calb FLC	rRNA inh HTS
1	COc1ccc(NS(=O)(=O)c2cccc(C(=O)NCC(c3ccc(F)cc3)N3CCOCC3)c2)cc1 (stereo not drawn)	-1	6	1.9	-5	-10
2	COc1ccccc1CNC(=O)CN1C(=O)COc2ccc(S(=O)(=O)N3CCCCC3)cc21	-10	-5	0.7	-2	2
3	CC(=O)Nc1ccc(OCC(O)Cn2nc(C)nc2C)cc1 (stereo not drawn)	-5	1	.	0	.
4	Cc1ccc(-c2nc(NC(=O)CSc3ncn[nH]3)ns2)cc1	0	-10	-1.5	0	0
5	COc1cccc(NS(=O)(=O)c2cc3c4c(c2)CCC(=O)N4CCC3)c1	.	-8	0.1	8	-10
6	COc1ccc(C(=O)NC(=S)N2CCN(c3ccccc3O)CC2)cc1	99*	.	4.9	.	.
7	Cc1cc(C)c2oc(C(=O)NCCc3ccc(S(N)(=O)=O)cc3)cc(=O)c2c1	-5	9	?	-10	2
8	CCn1c(C)nc2cc(C(=O)N/N=C/c3ccc(OC)c(O)c3)ccc21	.	-14	0.2	-5	-23*
9	O=C(O)CC/C(=N/NC(=O)c1cccs1)c1ccccc1	.	-1	1.1	1	2
10	CCOC(=O)Cn1nc(C)c(NC(=O)CCc2ccc(OC)cc2)c1C	-4	0	0.4	-16	-4
11	O=C1CCN(Cc2ccc(Br)cc2)CCN1[C@H](CO)Cc1ccccc1	2	14	.	18	-31
12	COc1ccc(C(=O)NCCc2cn3ccc(C)cc3n2)cc1	.	-7	-11	-6	-2

no.	rRNA inh HTS OD600	rRNA inh HTS RFP	Beta apoptosis	FGF22 binding	RanGTP-Imp inh
1	-11	2.9	-1	i	?
2	-3	1.5	2	i	1.1
3	.	.	.	.	0.4
4	-3	0.1	-4	i	-0.4
5	-14	2.4	8	i	1.7
6	.	.	-3	i	.
7	17	-2.8	2	.	-0.4
8	-5.4*	0.5*	4	i	-2.1
9	-8	-0.8	-6	i	2.2
10	5	0.8	-4	i	6.2
11	-36	4.2	-2	i	-1.8
12	4	-1.1	-8	i	-4.6

(cont.)
no.	structure	ALR inh	T cruzi inh	MLL AF4-AF9 inh	Calb FLC	rRNA inh HTS
13	CC(=O)Nc1ccc(OCC(O)Cn2c(CO)nc3ccccc32)cc1 (stereo not drawn)	-6	-1	-1.1	-4	4
14	CCNC(=O)NC(=O)C(C)On1nnc2ccc(S(=O)(=O)N(CC)CC)cc21 (stereo not drawn)	23	-11	.	-1	.
15	COc1ccc(-c2cc(=O)oc3c(C)c(OCC(=O)N(C)C)ccc23)cc1	-7	8	-0.3	27	-18
16	CC(NC(=S)Nc1ccc(OC(F)F)cc1OC(F)F)C(C)(C)C (stereo not drawn)	.	6	.	-4	.
17	Cc1ccc(OCC2Cn3c(nc4c3c(=O)[nH]c(=O)n4C)O2)cc1 (stereo not drawn)	3	-2	.	-18	.
18	COc1ccc(OC)c(/C=C/C(=O)N2C(=O)c3cccc(N)c3C2=O)c1	7	-16	-0.2	-7	4
19	O=C(Nc1ccc(N2CCCCC2)cc1)c1cccnc1	98*	7	.	0	.
20	O=C(c1ccc(-n2cncn2)c([N+](=O)[O-])c1)N1CCN(S(=O)(=O)c2cccc(F)c2)CC1	-15	2	0.8	-3	-5
21	COc1ccc2oc(C(=O)NCc3cc(OC)c(OC)cc3OC)c(C)c2c1	.	45	3.1	-3	-16
22	CCC(C)(C)NC(=O)C(c1cccn1C)N(C(=O)Cn1nnc2ccccc21)c1ccccc1OC (stereo not drawn)	1	3	.	?	.
23	CCOC(=O)c1sc(NC(=O)CCN2C(=O)C3CCCCC3C2=O)cc1C (stereo not drawn)	0	.	0.0	.	-11
24	COC(=O)c1cc(NC(=O)c2nccnc2C(=O)O)cc(C(=O)OC)c1	-7	-4	1.1	1	2

no.	rRNA inh HTS OD600	rRNA inh HTS RFP	Beta apoptosis	FGF22 binding	RanGTP-Imp inh
13	2	-6.4	-4	i	-11
14	.	.	.	.	5.3
15	-22	-2.7	7	i	4.6
16	.	.	-3	.	3.2
17	.	.	3	.	3.0
18	-1	-4.6	-32	i	6.7
19	.	.	4	.	0.3
20	-2	2.4	3	i	-2.2
21	-32	-1.9	13	i	2.1
22	.	.	0	.	0.2
23	-12	3.2	-2	i	.
24	9	-5.8	0	i	?

Taken from above:
Value for `COc1ccc(OC)c(/C=C/C(=O)N2C(=O)c3cccc(N)c3C2=O)c1` under rRNA inh HTS OD600: -1
Value for `CC(=O)Nc1ccc(OCC(O)Cn2c(CO)nc3ccccc32)cc1` (stereo not drawn) under Calb FLC: -4
Value for `CCC(C)(C)NC(=O)C(c1cccn1C)N(C(=O)Cn1nnc2ccccc21)c1ccccc1OC` (stereo not drawn) under RanGTP-Imp inh: 0.2
Value for `COC(=O)c1cc(NC(=O)c2nccnc2C(=O)O)cc(C(=O)OC)c1` under MLL AF4-AF9 inh: 1.1

Structures listed so far that bear a hit mark in ALR inh:
entry | Molecule | ALR inh | MLL AF4-AF9 inh | rRNA inh HTS | rRNA inh HTS OD600 | rRNA inh HTS RFP | FGF22 binding | RanGTP-Imp inh
6 | COc1ccc(C(=O)NC(=S)N2CCN(c3ccccc3O)CC2)cc1 | 99* | 4.9 | . | . | . | i | .
19 | O=C(Nc1ccc(N2CCCCC2)cc1)c1cccnc1 | 98* | . | . | . | . | . | 0.3

Further structures:
no.	structure	ALR inh	T cruzi inh	MLL AF4-AF9 inh	Calb FLC	rRNA inh HTS
25	O=C(COC(=O)C1=COCCO1)Nc1ccc(Br)cc1Br	1	.	-5.1	.	11
26	Nc1nc(-c2cccnc2)nn1S(=O)(=O)c1ccccc1	11	0	.	-11	.
27	O=C(NCc1cccs1)C(=O)NCC(c1ccco1)N1CCN(c2ccccc2F)CC1 (stereo not drawn)	-9	0	5.8	6	-16
28	CCCOc1cccc(C2C(C(=O)c3cccs3)=C(O)C(=O)N2Cc2cccnc2)c1 (stereo not drawn)	-1	-6	2.7	4	9
29	CCn1nnnc1SCC(=O)N1CCN(c2ccccc2)CC1	.	0	-3.7	-6	7
30	Cc1c(C(=O)N2CCCCC2)oc2ccc(S(=O)(=O)N3CC(C)CC(C)C3)cc12 (stereo not drawn)	4	-11	.	6	.
31	O=C1[C@@H]2C(c3ccc(F)cc3)=NO[C@@H]2C(=O)N1Cc1ccccc1	0	1	-5.2	6	20
32	CC1CCN(C(=O)CSc2nc3ccccc3c(=O)n2Cc2ccc3c(c2)OCO3)CC1	-26	46	.	12	.
33	Cc1ccc2oc(=O)c3cc(C(=O)N4CCN(C(=O)c5ccco5)CC4)sc3c2c1	-2	10	.	4	.
34	C(=C\c1nc2ccccc2[nH]1)/c1ccccc1	98*	-6	.	-18	.
35	Cc1ccccc1NC(=O)C12CC3CCC1(C)C3(C)CO2 (stereo not drawn)	-7	11	-1.9	-14	18
36	CCCCC(=O)Nc1nnc(S(=O)(=O)N(CC)c2ccc(OC)cc2)s1	-6	5	-0.1	-4	1

no.	rRNA inh HTS OD600	rRNA inh HTS RFP	Beta apoptosis	FGF22 binding	RanGTP-Imp inh
25	14	-2.0	-5	i	.
26	.	.	-2	.	-2.3
27	-13	11	3	i	?
28	10	1.5	-8	i	4.6
29	2	-1.5	-29	i	11
30	.	.	35	.	2.2
31	22	2.2	0	i	-1.2
32	.	.	-8	.	1.7
33	.	.	-1	.	-3.8
34	.	.	52	.	1.4
35	11	2.6	-6	i	6.6
36	7	1.7	-5	i	-1.5

Further compounds follow:
no.	structure	ALR inh	T cruzi inh	MLL AF4-AF9 inh	Calb FLC	rRNA inh HTS
37	Cc1ccc(NC(=O)Cc2ccc(Cl)c(Cl)c2)cc1S(=O)(=O)N(C)C	27	13	.	1	.
38	CCOc1c(CNCCNC(=O)c2nonc2N)cccc1OC	-3	-15	.	4	6
39	Cc1ccc(S(=O)(=O)CCC(=O)c2ccc(O)cc2O)cc1	98*	36	.	36	.
40	CC(C)(C)N(Cc1ccccc1)C(=O)COC(=O)C1CCCCC1	2	.	-7.7	.	-26
41	CCOc1ccc2nc(SCC(=O)NCC3CCCO3)sc2c1 (stereo not drawn)	-1	.	-0.2	.	-6
42	COc1ccc(S(=O)(=O)N(C)c2ccccc2)c2cccnc12	-7	8	-4.2	24	3
43	COc1ccc(S(=O)(=O)Cc2ccc(C(=O)N3CCC(C(N)=O)CC3)o2)cc1	-35	-18	0.3	3	5
44	COC(=O)c1cc(OC)c(OC)cc1NC(=O)c1ccco1	-3	12	.	-1	.
45	CCOc1ccc(/C(O)=C2/C(=O)C(=O)N(c3ccccn3)C2c2ccc(Cl)cc2)c(C)c1 (stereo not drawn)	12	0	2.3	20	4
46	CCn1cc(C(=O)OCC(=O)Nc2cc(S(=O)(=O)N(C)C)ccc2C)c(=O)c2ccc(C)nc21	-8	0	.	18	.
47	Cc1cc(C)n(-c2cc(-c3ccccc3)nc(C)n2)n1	-1	2	.	-24	.
48	Nn1c(SCC(=O)Nc2nccs2)nncc1=O	99*	-12	-2.9	1	13

no.	rRNA inh HTS OD600	rRNA inh HTS RFP	Beta apoptosis	FGF22 binding	RanGTP-Imp inh
37	.	.	1	.	2.0
38	-2	-1.3	-1	i	1.9
39	.	.	-13	.	-4.7
40	-49	-4.8	2	i	.
41	-10	-2.0	-2	i	.
42	7	3.9	-1	i	2.2
43	10	-4.9	2	i	3.2
44	.	.	9	.	0.4
45	-3	-1.6	1	i	-4.7
46	.	.	.	.	-0.5
47	.	.	5	.	0.5
48	8	-1.4	-5	i	2.0

New compounds follow
no.	structure	ALR inh	T cruzi inh	MLL AF4-AF9 inh	Calb FLC	rRNA inh HTS
49	CNc1nc(SC)nc(N(C#N)CC(=O)OC)n1	-28	-1	.	-6	.
50	O=C(NC1=NCCS1)c1ccc(Cl)s1	-3	-4	.	?	.
51	COc1ccc(-c2noc(CSc3nnc(-c4ccncc4)n3-c3ccc(F)cc3)n2)cc1OC	-6	.	8.8	.	-10
52	C=C(C)C1CC=C(CN2CC(C)OC(C)C2)CC1 (stereo not drawn)	-29	7	.	13	.
53	CCN(CC(=O)Nc1ccc(NC(C)=O)cc1)C(=O)COc1ccc(C(=O)c2ccccc2)cc1	-8	-7	.	2	.
54	O=C(Nc1ccccc1)c1cnc2n(c1=O)CCS2	.	-5	1.3	-5	15
55	COc1cc(-c2nnc3n(CCc4ccccc4)c(=O)c4ccccc4n23)cc(OC)c1OC	-11	3	-17	-2	17
56	N#Cc1ccc(Cl)cc1NC(=O)CSc1cccc[n+]1[O-]	2	.	-2.3	.	-7

no.	rRNA inh HTS OD600	rRNA inh HTS RFP	Beta apoptosis	FGF22 binding	RanGTP-Imp inh
49	.	.	-3	.	-5.4
50	.	.	-1	.	4.0
51	-7	5.1	-3	i	.
52	.	.	-5	.	-2.7
53	.	.	1	.	-1.4
54	7	-3.3	-4	i	5.0
55	12	3.0	17	i	-8.2
56	-16	-6.5	0	i	.
